Assay outcomes (PubChem)
CatB inh – blocks human cathepsin B protease activity. P07858. purified cathepsin B, fluorogenic substrate, fluorescence. inhibition, %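 (tested at 10 µM)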. AID 453. 63,000 compounds, 0.1% hits; in the data active = inhibition above about 21%;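 note: 0% = enzyme with no compound and 100% = no enzyme blank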
A340 absorber – absorbance at 340 nm; compound absorbance at 340 nm, fold over control; fold change at 10 µM; 65,000 tested, under 10 active;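 active = at 10 µM dose, initial 340 nm absorbance at least 2 fold that of control wells; inactive = change under 2 fold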;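 note: initial absorbance extrapolated from kinetic A340 decline of NADH oxidation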
CatS inh – inhibitors of human cathepsin S; AID 501; inhibition, %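 (tested at 5 µM per compound within 10-compound mixtures)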; recombinant cathepsin S, AMC dipeptide fluorescence, pooled mixtures; P25774; 62,000 compounds, 0.06% hits; in the data active = inhibition above about 32%, passing the limit was not always enough;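 note: 0% = enzyme without compound and 100% = blank without enzyme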
Cathepsin G inh – cathepsin G (human) inhibition; inhibition, % at 5 µM (by protocol); AID 581; purified enzyme, AMC-tetrapeptide fluorescence, pooled mixtures; 62,000 compounds, 0.2% hits;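 active = inhibition above 20% in each of the two mixture wells holding the compound; inactive = inhibition of 20% or less in either well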;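 note: 0% = enzyme control without mixture and 100% = blank lacking enzyme; strong numbers were not always called active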
Target sequence (P08311 21-244 limits assumed): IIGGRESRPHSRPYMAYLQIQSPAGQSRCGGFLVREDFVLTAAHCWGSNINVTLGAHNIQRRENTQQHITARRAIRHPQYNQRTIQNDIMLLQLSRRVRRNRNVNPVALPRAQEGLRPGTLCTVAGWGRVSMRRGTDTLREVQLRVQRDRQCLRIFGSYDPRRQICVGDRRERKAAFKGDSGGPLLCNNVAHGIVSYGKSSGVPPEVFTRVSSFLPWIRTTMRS
CatL block – blocks human cathepsin L protease activity; P07711; AID 460; inhibition, %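 (tested at 10 µM)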; purified cathepsin L, fluorogenic substrate, fluorescence; 58,000 compounds, 0.17% hits; in the data active = inhibition above about 45%;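 note: 0% = enzyme with no compound and 100% = no enzyme blank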
Target sequence (P07711 114-288 limits assumed): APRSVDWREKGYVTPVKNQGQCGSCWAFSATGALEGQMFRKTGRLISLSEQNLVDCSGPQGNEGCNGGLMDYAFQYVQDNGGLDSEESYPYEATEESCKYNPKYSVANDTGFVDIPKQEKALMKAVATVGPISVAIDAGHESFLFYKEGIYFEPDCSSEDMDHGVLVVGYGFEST
Target sequence (P07711 292-333 limits assumed): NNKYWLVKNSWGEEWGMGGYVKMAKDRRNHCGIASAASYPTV
Active calls of the source: *; nt = not tested or not shown.

item | SMILES | CatB inh | A340 absorber | CatS inh | Cathepsin G inh | CatL block
1 | CCc1ccc(N2C(=O)C3ON(c4ccccc4)C(c4ccco4)C3C2=O)cc1 (configuration not stated) | 1 | 0.99 | 17 | -1 | -4
2 | CS(=O)(=O)n1nc(OC(=O)c2cccc3ccccc23)cc1N | 9 | 1.1 | 9 | 25 | 12
3 | COc1ccc(S(=O)(=O)n2nc(OC(=O)c3ccc(C)cc3)cc2N)cc1 | 49* | 0.99 | -5 | 32* | -3
4 | COc1cccc(OCC(=O)Nc2ccccc2C(N)=O)c1 | 6 | 1 | nt | 13 | 7
5 | CC(=O)c1cccc(N(CC(=O)N2CCCC2)S(C)(=O)=O)c1 | 0 | 1 | 0 | 1 | 4
6 | COc1cc(NC(=O)c2ccc(Br)o2)ccc1NC(=O)C(C)C | 1 | 1.1 | -4 | 9 | -12
7 | CC1(C)Cc2ccccc2C(/C(=N/O)C(N)=O)=N1 | -5 | 1 | 6 | -7 | 3
8 | Nc1nc(-c2cccnc2)nn1C(=O)Cc1ccccc1 | 2 | 1.1 | 11 | 14 | 8

For reference, some entries already given:
item | SMILES | CatB inh | A340 absorber | CatS inh | Cathepsin G inh | CatL block
1 | CCc1ccc(N2C(=O)C3ON(c4ccccc4)C(c4ccco4)C3C2=O)cc1 (configuration not stated) | 1 | 0.99 | 17 | -1 | -4
2 | CS(=O)(=O)n1nc(OC(=O)c2cccc3ccccc23)cc1N | 9 | 1.1 | 9 | 25 | 12
3 | COc1ccc(S(=O)(=O)n2nc(OC(=O)c3ccc(C)cc3)cc2N)cc1 | 49* | 0.99 | -5 | 32* | -3
4 | COc1cccc(OCC(=O)Nc2ccccc2C(N)=O)c1 | 6 | 1 | nt | 13 | 7
5 | CC(=O)c1cccc(N(CC(=O)N2CCCC2)S(C)(=O)=O)c1 | 0 | 1 | 0 | 1 | 4
6 | COc1cc(NC(=O)c2ccc(Br)o2)ccc1NC(=O)C(C)C | 1 | 1.1 | -4 | 9 | -12

More structures.
item | SMILES | CatB inh | A340 absorber | CatS inh | Cathepsin G inh | CatL block
9 | CCn1c(COc2ccc(Cl)cc2)nnc1SCC(=O)Nc1ccc2c(c1)OCO2 | 2 | 1.1 | -2 | 12 | 0
10 | CCOC(=O)c1cnc(C(C)(C)C)[nH]c1=O | -2 | 1 | 6 | 4 | 7
11 | COc1cc2c(cc1OC)-c1cc(N3CCCCCC3)nc(=O)n1CC2 | 4 | 1.2 | 5 | 9 | nt
12 | COc1ccc(OCC(=O)Nc2cccc(NC(=O)COc3ccc(OC)cc3)n2)cc1 | 6 | 1 | 2 | 6 | 1
13 | COc1ccc(-c2nnc(SCCC(=O)O)n2C)cc1OC | -6 | 1 | 6 | 0 | 7
14 | c1ccc(-c2cnc(-c3cccnc3)o2)cc1 | -1 | 1.1 | 0 | 2 | -16
15 | CC1=C(C(=O)OCC2CCCO2)C(c2ccccc2OC(C)C)C2=C(CC(c3ccco3)CC2=O)N1 (configuration not stated) | -1 | 1 | 7 | 2 | -5
16 | COc1ccc(C(=O)n2nc(C)cc2C)cc1Br | -1 | 0.99 | -5 | -4 | -1
17 | Cc1cc(C)cc(C(=O)n2cnnc2N)c1 | -2 | 1 | 14 | 65* | 10
18 | CCCCNC(=O)CCC(=O)Nc1ncc(-c2ccc(C)cc2)n1C | 2 | 1.1 | -5 | -3 | -4
19 | CC(C)(C)NC(=O)CN(C(=O)CCN1CCCc2ccccc21)C(C)(C)C | -6 | 1 | -8 | -1 | -7
20 | O=C(CSc1nnc2c3c4c(sc3ncn12)CCCC4)NCc1ccco1 | 9 | 0.98 | 18 | -3 | 17
21 | CC(=O)c1sc2ccccc2c1OC(=O)c1ccco1 | 1 | 1.1 | 14 | 3 | 13
22 | Cc1ccc2cccc(Oc3nnnn3-c3ccccc3)c2n1 | 0 | 1 | 3 | 3 | nt
23 | c1ccc(C(c2ccccc2)N2CCN(Cc3nnnn3C3CCCC3)CC2)cc1 | 0 | 1 | 6 | 8 | 11
24 | C=CCSc1nnc2c(n1)[nH]c1c(C)cccc12 | 4 | 1.1 | 0 | 2 | 17

Some of the entries so far, with values ahead of the structure.
no. | CatB inh | A340 absorber | CatS inh | Cathepsin G inh | CatL block | SMILES
17 | -2 | 1 | 14 | 65* | 10 | Cc1cc(C)cc(C(=O)n2cnnc2N)c1
19 | -6 | 1 | -8 | -1 | -7 | CC(C)(C)NC(=O)CN(C(=O)CCN1CCCc2ccccc21)C(C)(C)C
21 | 1 | 1.1 | 14 | 3 | 13 | CC(=O)c1sc2ccccc2c1OC(=O)c1ccco1
24 | 4 | 1.1 | 0 | 2 | 17 | C=CCSc1nnc2c(n1)[nH]c1c(C)cccc12

Back to the main list, starting 2 compounds before the break.
item | SMILES | CatB inh | A340 absorber | CatS inh | Cathepsin G inh | CatL block
23 | c1ccc(C(c2ccccc2)N2CCN(Cc3nnnn3C3CCCC3)CC2)cc1 | 0 | 1 | 6 | 8 | 11
24 | C=CCSc1nnc2c(n1)[nH]c1c(C)cccc12 | 4 | 1.1 | 0 | 2 | 17
25 | Nc1nc(C(=O)N2CCOCC2)nn1S(=O)(=O)c1ccc(Cl)cc1 | 4 | 1 | -17 | -2 | -2
26 | CCn1c(COc2ccc(C)cc2)nnc1SCC(=O)Nc1ccc(S(N)(=O)=O)cc1 | 4 | 1.1 | 12 | -5 | 9
27 | CCCC(=O)n1nc(-c2ccc(OC)cc2)nc1N | 3 | 0.99 | 3 | 7 | 11
28 | CCOC(=O)c1ccc(N=Cc2nc(-c3ccccc3)oc2OC(C)=O)cc1 | 9 | 1.1 | 19 | 28* | 5
29 | O=c1cc(CN2CCN(c3ccccc3)CC2)c2c(ccc3ccccc32)o1 | 5 | 1 | -1 | 2 | 6

An excerpt; rates above refer to the full screens.
